SARS PLP yeast = SARS-CoV PLP inhibition in yeast. Potency, µM (doses to about 32.9 µM), for inactives: at the highest dose activity, positive = growth rescue. S. cerevisiae expressing SARS-CoV PLpro, growth rescue; control for the full effect not named in the record. 330,000 tested, 0.19% active. AID 485353; also: 0% is about no effect; nearly all actives have a fitted effect of over 55% in size; growth read by luminescence after 48 h
Cruzain Triton = blocks cruzain activity in presence of Triton detergent | purified cruzain, Z-FR-AMC fluorescence, 0.01% Triton | AID 1478 | Potency, µM, inactives show max response, negative = inhibition, most hits filed as inhibitors | 200,000 tested, 0.43% active; active = well fitted curve in the direction sought with a large enough effect; inconclusive = small, poorly fitted or top-dose-only effect, or another doubt; inactive = no such curve, though single readings can be large; an effect the other way counts as inactive or inconclusive;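 also: plate controls were neutral wells for no effect and buffer without enzyme for full effect; nearly all actives have a fitted effect of over 40% in size; top concentration of the series not given in the record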
Target sequence (P25779 123-467 limits assumed): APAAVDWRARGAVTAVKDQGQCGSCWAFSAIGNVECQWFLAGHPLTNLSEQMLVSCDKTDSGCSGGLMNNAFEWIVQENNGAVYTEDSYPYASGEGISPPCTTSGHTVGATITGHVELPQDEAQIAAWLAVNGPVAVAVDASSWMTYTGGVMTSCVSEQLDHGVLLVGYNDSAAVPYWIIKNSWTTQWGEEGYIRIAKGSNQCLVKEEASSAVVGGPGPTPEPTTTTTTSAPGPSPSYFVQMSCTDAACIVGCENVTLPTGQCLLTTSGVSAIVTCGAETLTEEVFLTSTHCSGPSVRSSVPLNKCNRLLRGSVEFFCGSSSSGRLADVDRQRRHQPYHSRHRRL
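Compounds were screened in titration against cruzain (1.5 nM) with 0.01% Triton X-100 to counter colloidal aggregation. Activity was the AMC fluorescence increase over 60 s after adding 2 uM Z-FR-AMC at pH 5.5.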
Marburg entry inh = blocks Marburg virus binding to or entry into cells. Potency, µM (highest dose often 37.8 µM), for inactives: at the top dose activity change, negative = inhibition, usual class: inhibitors. 300,000 tested, 1.8% active. Marburg virus pseudotyped entry inhibition, cell reporter; control for the full effect not named in the record; about a third of the inactives were read at about 46 µM. AID 540276; active = well fitted inhibition curve with a large enough effect; inconclusive = small, poorly fitted or top-dose-only effect, or effect the other way; inactive = flat fitted curve, though single readings scatter; tested in HEK293 cells; about a fifth of its hits are not listed in these tables; also: % is scaled to controls: 0 for no effect and ±100 for the full control effect; luciferase read-out
RE007 growth inh = less growth of the S. pombe RE007 Vpr strain; 360,000 tested, 0.21% active; Potency, µM (titrated, usually from 92.2 µM), for the others: at the top dose activity change, negative = less growth; S. pombe RE007 Vpr strain, BacTiter-Glo ATP luminescence, 24 h; control for the full effect not named in the record; AID 651644; active = well fitted falling curve with a large enough effect; inconclusive = small, poorly fitted or top-dose-only effect; inactive = no such curve, though single readings can be large or run the other way;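 also: % is scaled to controls: 0 for no effect and ±100 for the full control effect; nearly all actives have a fitted effect of over 50% in size; the assay follows cell death caused by Vpr and the record does not say whether a fall means rescue or toxicity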
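Fission yeast strain RE007, carrying one chromosomally integrated HIV-1 vpr copy, was seeded at OD 0.01 in PMG+AL medium with 23 nL pinned compound. After 24 h at 30 °C and 99% humidity, viability was read by BacTiter-Glo luminescence.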
NS1 inh = influenza NS1 inhibition. 270,000 tested, 0.4% active. Potency, µM (titrated, usually from 46.1 µM), for inactives: at the highest dose activity, positive = more growth. AID 2326. S. cerevisiae slowed by influenza A NS1, growth recovery by OD600; also: actives are rising curves; nearly all actives have a fitted effect of over 50% in size
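OD600 was taken as the measure of yeast growth restored by compound in an NS1-expressing S. cerevisiae strain. Cells had been washed out of glucose medium and diluted 1:100 into galactose -URA medium, pH 6.0.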
Lassa entry inh = blocks Lassa virus binding to or entry into cells; Lassa virus pseudotype entry inhibition, cell reporter; control for the full effect not named in the record; Potency, µM (series often up to 37.9 µM), inactives show at the top dose activity change, negative = inhibition, actives largely listed as inhibitors; 300,000 tested, 1.2% active; active means well fitted inhibition curve with a large enough effect; inconclusive means small, poorly fitted or top-dose-only effect, or effect the other way; inactive means flat fitted curve, though single readings scatter; tested in HEK293 cells; also: % is scaled to controls: 0 for no effect and ±100 for the full control effect; nearly all actives have a fitted effect of over 50% in size; luciferase read-out
Cruzain noTriton = inhibitors of Trypanosoma cruzi cruzain without detergent; AID 1476; 200,000 tested, 2.3% active; purified cruzain, Z-FR-AMC fluorescence, no detergent; Potency, µM, for the others: max response, negative = inhibition, usual class: inhibitors; P25779; active = well fitted curve in the direction sought with a large enough effect; inconclusive = small, poorly fitted or top-dose-only effect, or another doubt; inactive = no such curve, though single readings can be large; an effect the other way counts as inactive or inconclusive;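 also: plate controls were enzyme without inhibitor for no effect and buffer without enzyme for full effect; nearly all actives have a fitted effect of over 40% in size; top concentration of the series not given in the record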
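Detergent-free condition (0.00005% Triton X-100) in acetate buffer pH 5.5 with DTT. 1.5 nM enzyme and compound were pre-mixed 15 min, then 2 uM Z-FR-AMC substrate added; reaction progress from fluorescence change between first and third reads (60 s).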
2A StopGo = FMDV 2A StopGo reporter, luciferase signal. human cells with a luciferase reporter of 2A StopGo recoding; control for the full effect not named in the record. Potency, µM (doses to about 57.9 µM), for the others: top-dose signal change, negative = less light. 410,000 tested, 1.2% active. AID 1159524; active = well fitted falling curve with a large enough effect; inconclusive = small, poorly fitted or top-dose-only effect; inactive = no such curve, though single readings can be large or run the other way; tested in HEK293T cells; also: % is scaled to controls: 0 for no effect and ±100 for the full control effect; nearly all actives have a fitted effect of over 45% in size; luciferase light after 4 h
Numbers without * were called inactive; ? = inconclusive; . = no result given; & = joins results of further samples; [ ] = remark or other dose. Unless noted, calls follow the shape of the dose curve; as a rule, active means well fitted rising curve with a large enough effect; inconclusive means small, poorly fitted or top-dose-only effect; inactive means no such curve, though single readings can be large or run the other way. Potency is read from the fitted curve at half-maximal effect. Hits appear at their usual frequency. About 4.8% of those tested had a hit in this group.

Values run as follows: SARS PLP yeast	Cruzain Triton	Marburg entry inh	RE007 growth inh	NS1 inh	Lassa entry inh	Cruzain noTriton	2A StopGo
1: Cc1ccc2nc(C)c(C(=O)NN=C3CCCCCC3)n2c1
 : 9%	.	.	-6%	3%	.	.	-20%
2: Cc1ccc(C(=O)c2cn(Cc3ccccc3)c3cc4c(cc3c2=O)OCCO4)cc1
 : .	-0.3%	5%[46.1 µM]	.	.	14%[46.1 µM]	24%	-5%
3: COc1ccc(CN=C2NC(=O)CC(C(=O)Nc3ccc(F)cc3)S2)cc1 (stereo not given)
 : -1%	-3.5%	-6%	-15%	-6%	6%	-9%	9%
4: O=C(N/N=C/c1ccc2c(c1)OCO2)c1sc2cc(Cl)ccc2c1Cl
 : 17%	-1.1%	-1%	6%	0%	-4%	?	22%
5: COc1cc(CCCN2C(=S)NC[C@H]2Cc2ccc(O)cc2)cc(OC)c1OC
 : 0%	.	.	4%	1%	.	.	-21%
6: CCCN1CCN(C(=O)c2cccc3c2C(=O)N(CCOC)C3)CC1
 : 6%	0.6%	.	-2%	-7%	.	-1%	-23%
7: CN1C(=O)CC(N2CCN(c3ccc(Cl)cc3)CC2)C1=O (stereo not given)
 : 12%	-0.3%	9%	-9%	13%	4%	-3%	-23%
8: COc1ccc(OC)c(NC(=O)CN2CCC(C(=O)c3ccc(C)cc3)CC2)c1
 : 1%	-1.1%	?	11%	-18%	?	2%	?
9: Cc1ccc(NC(=O)Cn2c(=O)n(CCCCC(=O)NCc3ccco3)c(=O)c3ccccc32)cc1
 : 1%	1.6%	-18%&-18%	1%	5%	-16%	-9%	-12%
10: Cc1ccc(NC(=O)COC(=O)c2nn(C)cc2Cl)cc1
 : -4%	.	-13%[46.1 µM]	-14%	-7%	0%[46.1 µM]	.	10%
11: N#Cc1ccccc1NCc1ccccc1
 : 3%	-0.4%	8%&8%	-1%	-2%	?	3%	22%
12: Cc1c(Br)c(=O)oc2c(Br)c(O)c(O)cc12
 : 17%	-11%	15%	-10%	17%	1%	0%	-18%
13: COCCNC(=O)C(C)Oc1ccccc1 (stereo not given)
 : 0%	.	.	2%	11%	.	.	-13%
14: CC(=O)c1ccc(N2CCN(c3nc4ccccc4c4nc(-c5cccc(C)c5)nn34)CC2)cc1
 : .	0.0%	25%[46.1 µM]	.	.	.	-1%	7%
15: CCOC(=O)c1cnc(-n2nc(C)cc2C)nc1Oc1ccc(C(=O)OC)cc1
 : -2%	.	7%[46.1 µM]	20%	3%	?	.	0%
16: COc1ccc(-c2nc(N3CCC(C)CC3)[nH]c(=O)c2C#N)cc1
 : 7%	-0.4%	3%	-16%	-4%	-24%	3%	.
17: CCCCc1c(C)nc(Nc2ccc(OC)cc2)[nH]c1=O
 : 19%	-3.2%	?	.	0%	7%	12%	-4%
18: Cc1ccc(-n2ncc3c2CCCC3NC(=O)CCCN2CCCC2=O)cc1C (stereo not given)
 : -1%	.	-4%	-9%	-4%	-10%	.	0%
19: O=C(CCCc1ccccc1)Nc1ccnn1C1CCN(Cc2ccccc2F)CC1
 : 3%	.	-22%	-23%	7%	-6%	.	-22%
20: O=C(NCCO)C1COc2ccccc2O1 (stereo not given)
 : -1%	.	?	3%	.	?	.	16%
21: COc1ccc(COCC(O)CN2CCN(S(=O)(=O)c3ccc(C(C)C)cc3)CC2)cc1 (stereo not given)
 : 9%	.	?	0%	.	?	.	-26%
22: CC(C)CN1C(=O)c2ccc(C(=O)Nc3ccccc3C(=O)O)cc2C1=O
 : 0%	.	?	-1%	-4%	?	.	0%
23: CSc1ncc(Cl)c(C(=O)Nc2sc3c(c2C(=O)NCc2ccco2)CCCC3)n1
 : 1%	0.8%	-10%	.	0%	.	5%	.
24: CC1(c2ccc(OC(F)F)cc2)NC(=O)N(CC(=O)Nc2ccc(Cl)cc2F)C1=O (stereo not given)
 : -1%	.	0%[46.1 µM]	0%	7%	2%[46.1 µM]	.	-7%
25: CC1(C)OC(=CC=Nc2ccc(Cl)cc2)OC1(C)C
 : 0%	.	1%[46.1 µM]	-22%	4%	-3%[46.1 µM]	.	-1%
26: CCN(CC(=O)Nc1c(F)cccc1F)C(=O)c1ccc(N2CCOCC2)c([N+](=O)[O-])c1
 : 6%	.	?	6%	.	-8%	.	?
27: COc1ccc(Oc2c(O)c3ccccc3n(C)c2=O)cc1
 : ?	-4.4%	17%	-10%	-8%	?	-6%	-17%
28: O=S(=O)(Nc1ccc(N2CCOCC2)cc1)c1cccs1
 : ?	0.4%	14%	-1%	0%	4%	2%	-8%
29: CCc1ccccc1NC(=O)c1nn(-c2ccc(C)cc2)c(=O)c2c1c1ccccc1n2C
 : .	-2.6%	0%[46.1 µM]	.	.	1%[46.1 µM]	6%	-11%
30: O=C(Nc1cc(Cl)ccc1Cl)C1CC(=O)N(c2ccc(Br)cc2)C1 (stereo not given)
 : -7%	-6.8%	?	0%	13%	-31%	1%	3%
31: CCc1c(C)nc2nncn2c1NCc1ccccc1
 : .	-3.0%	0%[46.1 µM]	.	.	-25%[46.1 µM]	-2%	?
32: O=C(COc1ccc(Cl)cc1Br)NC(=O)NCc1ccccc1
 : 18%	-4.3%	4%[46.1 µM]	13%	3%	?	-6%	14%
33: N#CC(c1ccc(Cl)cc1)c1ncc(C(F)(F)F)cc1Cl (stereo not given)
 : -6%	-6.1%	24%	13%	9%	3%	-3%	4%
34: CCN1N=C(c2ccccc2)Cn2c1nc1ccccc12
 : 1%	-12%	21%[46.1 µM]	-17%	-32%	13%	-1%	-13%
35: C=CCC1(/C=N/O)CCOC(C)(C)C1 (stereo not given)
 : 0%	.	11%[46.1 µM]	-9%	1%	1%	.	-7%
36: CCO[C@H]1OC(C(=O)O)=C[C@@H](c2csc3ccccc23)[C@@H]1CCCO
 : 0%	.	.	-3%	-1%	.	.	-10%
37: O=C(COc1ccc(/C=C2/NC(=O)NC2=O)cc1)Nc1ccc(F)cc1
 : 14%	.	.	-5%	-8%	.	.	-27%
38: COc1cc(C(C(=O)NC2CCCC2)N(C(=O)c2snc(C(N)=O)c2N)c2ccccc2)cc(OC)c1OC (stereo not given)
 : 0%	.	-17%[46.1 µM]	-15%	?	?	.	-15%
39: Cn1cc(CNC(=O)CC2C(=O)NCCN2CC(C)(C)C)cn1 (stereo not given)
 : 0%	.	4%[46.1 µM]	2%	2%	17%[46.1 µM]	.	-11%
40: CC(C)c1ccc(S(=O)(=O)N2CCN(C(C)C(=O)Nc3ccccc3-c3ccccc3)CC2)cc1 (stereo not given)
 : 3%	-1.3%	?	14%	?	?	?	-2%
41: C=CCc1c(C)nc(SCc2ccccc2)[nH]c1=O
 : -2%	.	?	3%	-13%	11%	.	54%[activator]
42: COc1cc(C(C(=O)NC2CCCC2)N(C(=O)Cc2cccs2)C2CC2)cc(OC)c1OC (stereo not given)
 : 0%	.	12%[46.1 µM]	0%	.	2%	.	3%
43: CCn1nc(C)cc1C(=O)N1CCCC(C(=O)c2cccc(OC)c2)C1 (stereo not given)
 : -1%	.	-28%[46.1 µM]	9%	2%	?	.	?
44: CS(=O)(=O)N(CC(=O)Nc1ccc2c(c1)OCCO2)c1ccc2c(c1)OCO2
 : 17%	4.0%	?	-8%	-5%	14%	-12%	1%
45: CCCCOc1ncnc2c1[nH]c1ccc(OC)cc12
 : -13%	3.0%	?	7%	-26%	-26%	-9%	26%
46: O=C(CCCCCCCCC(=O)N1CCCCC1)N1CCCCC1
 : .	.	?	4%	.	-24%	.	?
47: COc1ccc(N/N=C/c2c(O)n(-c3cccc(C)c3)c(=O)[nH]c2=O)cc1
 : 1%	.	.	17%	-1%	.	.	6%
48: Cc1c(C(=O)N2CCCCC2)oc2ccccc12
 : -6%	.	13%	-19%	.	20%	.	58%[activator]
49: CCCCCc1nnc(NC(=O)C2=COCCO2)s1
 : 0%	.	-12%	-20%	.	-18%	.	0%
50: COc1ccc(C(CNC(=O)c2cccc([N+](=O)[O-])c2)N2CCOCC2)cc1 (stereo not given)
 : .	-2.2%	7%[46.1 µM]	.	.	12%[46.1 µM]	2%	-19%
51: COc1cccc(NC(=O)Nc2nnc(N3CCCCC3C)s2)c1 (stereo not given)
 : 15%	2.4%	0%	2%	-33%	4%	-6%	11%
52: CCCC1(C(=O)OCC)NC(c2ccc(O)cc2)C2C(=O)N(c3cccc(C(C)=O)c3)C(=O)C21 (stereo not given)
 : 2%	.	?	5%	-19%	3%[46.1 µM]	.	-12%
53: c1ccc2c(c1)nc(N1CCOCC1)c1ccccc12
 : -2%	.	-20%[46.1 µM]	-21%	.	-30%[46.1 µM]	.	5%
54: N#CC(C#N)=Cc1c(N2CCN(c3ccccc3)CC2)nc2ccccn2c1=O
 : -3%	.	.	6%	4%	.	.	-2%
55: CCCc1cc(=O)[nH]c(SCC(=O)N2CCCc3ccccc32)n1
 : 1%	.	2%	12%	3%	?	.	3%
56: CCOC(=O)c1cnc(-n2nc(C)cc2C)nc1Nc1cccc(C(C)=O)c1
 : .	.	20%	-6%	0%	?	.	-10%
57: O=c1c2c(nc3n1CCCCC3)-c1ccccc1CC21CCCC1
 : -42%	-3.1%	5%	20%	-17%	?	2%	-18%
58: CN1C(=O)S/C(=C/c2ccc(OCc3cccc(C(=O)O)c3)cc2)C1=O
 : 16%	.	.	-8%	12%	-2%	.	-20%
59: CCOc1cc(C(=O)NN=C2CCCC2)cc(OCC)c1OCC
 : -6%	.	.	-18%	10%	.	.	-18%
60: O=C(O)CSc1cc(NS(=O)(=O)c2cccc([N+](=O)[O-])c2)c2ccccc2c1O
 : -6%	.	.	-14%	-7%	.	.	10µM*
61: CCc1nc2ccccc2n1CCCCOc1ccc(C)cc1
 : .	-11%	?	.	.	15%[46.1 µM]	6%	?
62: Nn1c(SCC(=O)NCCCc2ccccc2)nnc1-c1cccnc1
 : -1%	.	16%[46.1 µM]	-4%	2%	15%	.	0%

Compound activity from PubChem.
